EPAC1 antag = antagonists of human EPAC1 | EPAC1 GEF assay, Rap1b-BODIPY-GDP exchange fluorescence | 0.14% of 360,000 active | O95398 | Potency, µM (doses to about 115 µM), inactives show at the highest dose activity change, negative = inhibition, usual class: inhibitors;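 further: potency means the concentration at half of the fitted maximal effect; plate controls were vehicle for no effect and positive control for full effect; nearly all actives have a fitted effect of over 50% in size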
Target sequence (O95398 whole entry, looked up): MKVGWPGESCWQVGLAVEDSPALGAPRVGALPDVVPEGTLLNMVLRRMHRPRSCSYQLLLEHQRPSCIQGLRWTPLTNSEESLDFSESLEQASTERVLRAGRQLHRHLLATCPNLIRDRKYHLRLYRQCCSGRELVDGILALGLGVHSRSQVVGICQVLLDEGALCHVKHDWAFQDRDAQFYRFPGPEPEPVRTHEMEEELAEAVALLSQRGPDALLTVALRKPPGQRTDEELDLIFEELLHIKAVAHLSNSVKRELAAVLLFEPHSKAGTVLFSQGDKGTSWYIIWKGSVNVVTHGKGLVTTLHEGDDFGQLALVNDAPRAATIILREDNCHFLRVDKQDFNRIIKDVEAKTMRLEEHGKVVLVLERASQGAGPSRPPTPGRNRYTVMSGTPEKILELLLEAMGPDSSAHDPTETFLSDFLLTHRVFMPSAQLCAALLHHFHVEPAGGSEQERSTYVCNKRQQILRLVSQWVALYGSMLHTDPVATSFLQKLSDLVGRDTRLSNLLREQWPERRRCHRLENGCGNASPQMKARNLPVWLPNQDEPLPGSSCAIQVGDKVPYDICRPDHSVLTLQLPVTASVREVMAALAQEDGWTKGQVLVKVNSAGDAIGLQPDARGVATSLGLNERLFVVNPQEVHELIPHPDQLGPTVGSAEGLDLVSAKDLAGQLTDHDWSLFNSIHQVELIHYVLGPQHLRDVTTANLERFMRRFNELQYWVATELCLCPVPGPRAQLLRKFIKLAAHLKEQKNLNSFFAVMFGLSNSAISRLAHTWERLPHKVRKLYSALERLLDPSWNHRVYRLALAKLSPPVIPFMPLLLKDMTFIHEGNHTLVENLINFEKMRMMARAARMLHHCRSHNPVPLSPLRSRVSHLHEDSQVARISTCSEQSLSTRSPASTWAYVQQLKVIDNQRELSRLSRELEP
EPAC1 agonist = activates human EPAC1 exchange factor. O95398. EPAC1 agonist qHTS, biochemical assay; response scale: 100% = response to 6.5 mM cAMP. Potency, µM (highest dose often 154 µM), inactives show top-dose activation, hits mostly activators. 0.073% of 360,000 active. AID 720707; further: potency means the concentration at half of the fitted maximal effect; nearly all actives have a fitted effect of over 60% in size
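Nucleotide exchange assay: 100 nM EPAC1 with 250 nM Rap1B loaded with BODIPY-GDP and 50 uM GDP, room temperature. Fluorescence (480/540 nm) read every 5 min for 30 min; signal change normalized to 6.5 mM cAMP as full agonist.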
CCT modulator = modulators of cytosolic chaperonin (CCT/TRiC) activity | activity change, % (concentration not given with the values), hits read low | purified chaperonin ATPase assay, HTRF ADP detection, 30 min | 0.3% of 360,000 active | AID 651819; in the data active means activity change below about -30%; further: on the % scale 0 is the no-effect control and ±100 the full control effect
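First, chaperonin was dispensed at 40 nM or 20 nM final depending on batch activity. Next, compounds were pinned at 76 uM and ATP added at 10 uM. After 30 min at 37 °C, ADP detection reagents ran 30 min at ambient temperature.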
EPAC2 agonist = activates human EPAC2 exchange factor; EPAC2 activation, biochemical qHTS; response scale: 100% = 6.5 mM cAMP response; Potency, µM (titrated, usually from 154 µM), for the others: top-dose activation, usual class: activators; 0.079% of 360,000 active; further: potency means the concentration at half of the fitted maximal effect; nearly all actives have a fitted effect of over 50% in size
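qHTS, titration series. 100 nM EPAC2 / 250 nM Rap1B-BODIPY-GDP / 50 uM GDP; RT; ex 480/em 540 nm, 5-min reads to 30 min. Norm. to 6.5 mM cAMP = activation.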
IL2 activator = activates IL-2 in a cell-based reporter assay; IL-2 activation reporter assay, cell-based qHTS; stimulated with anti-CD3/CD4/CD28 beads; in transgenic mouse T cells; activation, % (series mostly up to about 46 µM); 0.065% of 360,000 active; AID 652025; in the data active means activation above about 50%; inconclusive means mostly about 30% to 49%; further: 0% is about no effect
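First, unstimulated transgenic mouse T cells were exposed to compound for 60 min. Next, anti-CD3/anti-CD4-coated beads with anti-CD28 were added. Finally, after 18 h at 37 degrees C, EGFP and DsRed were imaged.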
WRN inhibitor = blocks human WRN helicase. WRN helicase unwinding, fluorescent forked duplex, kinetic. Potency, µM (titrated, usually from 114 µM), for the others: top-dose activity change, negative = inhibition, usual class: inhibitors. 0.46% of 360,000 active. AID 651768; further: potency means the concentration at half of the fitted maximal effect; on the % scale 0 is the no-effect control and ±100 the full control effect; nearly all actives have a fitted effect of over 55% in size
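Kinetic fluorescence helicase assay: unwinding of a quenched forked DNA duplex (100 nM final) with 2 mM ATP final raises red fluorescence (525/598 nm). Compounds sat 15 min at room temperature with 20 nM WRN beforehand.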
PLK1 PBD inh = PLK1 (human) polo-box domain binding inhibition | P53350 | Potency, µM, inactives show max response, negative = inhibition, actives largely listed as inhibitors | Plk1 PBD binding of FITC phosphopeptide, fluorescence polarization | AID 720504 | 2.8% of 360,000 active; further: potency means the concentration at half of the fitted maximal effect; series mostly up to about 57 µM; on the % scale 0 is the no-effect control and ±100 the full control effect; nearly all actives have a fitted effect of over 65% in size
* hit, by the source's call; ? = inconclusive; . = no result given; [ ] = another dose, or the depositor's remark. Unless noted, the call rests on the fitted dose curve; in most records, active means well fitted curve in the direction sought with a large enough effect; inconclusive means small, poorly fitted or top-dose-only effect, or another doubt; inactive means no such curve, though single readings can be large; an effect the other way counts as inactive or inconclusive. The list is partial; rates above refer to the full screens.

SMILES | EPAC1 antag | EPAC1 agonist | CCT modulator | EPAC2 agonist | IL2 activator | WRN inhibitor | PLK1 PBD inh
COc1cc2c(cc1OC)CN(C(=O)CCOc1ccccc1)CC2 | 6.2% | -4.6% | 0.5 | 12.1% | 1.3 | 8.2% | -6.5%
NS(=O)(=O)c1ccc(CNC(=O)Cc2cccs2)cc1 | 8.4% | 1.7% | -3.0 | 2.8% | -0.1 | -24.0% | -15.9%
CSc1ccc(CN2CCC(CO)(Cc3ccc(Cl)cc3)CC2)cc1 | -0.7% | 3.0% | -0.7 | 8.7% | 0.9 | -3.9% | -7.5%
CC(C)CNC(=O)c1noc2c1CCCC2 | -8.4% | 0.2% | -0.6 | -6.1% | ? | 3.7% | 1.9%
CN(C)C(=O)c1c2c(nc3ccccc13)CCCC2 | -8.8% | -6.3% | 0.6 | 7.6% | 7.9 | 6.5% | -4.5%
O=C(COc1ccc(-c2nnco2)cc1)Nc1c(Cl)cccc1C(F)(F)F | 6.4% | 2.5% | 1.1 | -10.8% | 0.9 | -9.9% | -7.7%
FC(F)(F)c1cc(-c2cccs2)nc2cc(-c3cccs3)nn12 | -11.4% | 4.3% | -2.0 | -4.0% | 0.2 | -4.0% | -9.2%
CC(=O)c1cccc(NC(=O)Cn2cnc(S(=O)(=O)N3CCC(C)CC3)c2)c1 | -1.5% | -14.7% | -0.7 | 0.8% | -0.6 | 9.9% | -1.8%
C=CCn1c(SCC(=O)Nc2cccnc2Cl)nnc1-c1ccccc1F | -8.7% | -9.9% | -2.2 | 13.1% | -0.4 | -28.1% | -10.9%
O=c1cc(-c2ccsc2)oc2ccccc12 | 5.7% | -19.0% | -0.6 | -5.3% | -0.2 | 3.8% | 1.4%
COc1ccc(C2c3c(-c4cc(Cl)c(C)cc4O)n[nH]c3C(=O)N2Cc2cccnc2)cc1OC (stereo unspecified) | -10.2% | 12.5% | 0.8 | -7.6% | 0.2 | -10.3% | 2.2%
CCCc1cc(=O)[nH]c(SCC(=O)Nc2ccc([N+](=O)[O-])cc2C#N)n1 | -25.6% | 0.1% | -2.6 | 1.6% | -2.0 | 1.9% | ?
CCOC(=O)c1cc(C#N)c(Oc2cccc(C(F)(F)F)c2)nc1-c1ccccc1 | -1.7% | 16.1% | 0.6 | -0.8% | -0.7 | -7.6% | 23.8µM*
CC1CCN(C(=S)NC(=O)c2ccco2)CC1 | 4.8% | 16.3% | -1.1 | 2.8% | -2.9 | -2.2% | 1.2%
CCCNC(=O)COC(=O)c1cc(C)nc2ccccc12 | -10.2% | 6.6% | -2.1 | 6.1% | -0.6 | 0.8% | ?
NC(=O)C(c1ccc(Cl)cc1)c1ccc(Sc2ccc(Cl)cc2)nn1 (stereo unspecified) | -9.9% | 24.2% | 0.6 | 18.6% | -0.3 | -10.3% | -5.5%
Cc1ccc(OCC(=O)Nc2nc(-c3ccccn3)cs2)c(C)c1 | -6.4% | 0.6% | -0.6 | -2.0% | -0.6 | -22.3% | 23.8µM*
Cc1cc(=O)n(CC=C(Cl)Cl)c2ccccc12 | 4.8% | 2.0% | 0.8 | -3.2% | 0.1 | -1.6% | -6.2%
COCCn1c(=N)c(C(=O)NCc2ccco2)cc2c(=O)n3ccccc3nc21 | -1.9% | 7.7% | 0.5 | 1.7% | 1.0 | -34.3% | -5.8%
CCOC(=O)c1cc(C#N)c(N2CCNCC2)nc1C(F)(F)F | 27.1% | 11.7% | 1.9 | 5.5% | 0.2 | 12.5% | -8.2%

Random excerpt: 3 entries already listed, in no set order.
SMILES | EPAC1 antag | EPAC1 agonist | CCT modulator | EPAC2 agonist | IL2 activator | WRN inhibitor | PLK1 PBD inh
Cc1cc(=O)n(CC=C(Cl)Cl)c2ccccc12 | 4.8% | 2.0% | 0.8 | -3.2% | 0.1 | -1.6% | -6.2%
CCCc1cc(=O)[nH]c(SCC(=O)Nc2ccc([N+](=O)[O-])cc2C#N)n1 | -25.6% | 0.1% | -2.6 | 1.6% | -2.0 | 1.9% | ?
COCCn1c(=N)c(C(=O)NCc2ccco2)cc2c(=O)n3ccccc3nc21 | -1.9% | 7.7% | 0.5 | 1.7% | 1.0 | -34.3% | -5.8%

More records.
SMILES | EPAC1 antag | EPAC1 agonist | CCT modulator | EPAC2 agonist | IL2 activator | WRN inhibitor | PLK1 PBD inh
CC(C)(C)NC(=O)Cc1ccc(S(=O)(=O)N2CCCC2)s1 | -11.6% | 8.4% | -1.5 | 0.0%[15.6 µM] | -0.3 | -2.5%[11.6 µM] | -1.6%
COc1cc(O)c(CC=C(C)C)c(O)c1C(=O)CCc1ccc(O)cc1 | -25.6% | -13.0% | 0.9 | 2.8% | 0.0 | -16.1% | -6.3%
CCOC(=O)c1cc(C#N)c(Oc2ccccc2)nc1-c1ccccc1 | -3.7% | -2.0% | -2.3 | 9.3% | 0.4 | -7.2% | 2.5%
COc1cccc(CNC(=O)c2c[nH]n3c(=O)c(Cl)c(C)nc23)c1 | 45.2%[activator] | -11.0% | -1.9 | -13.5% | 3.4 | ? | ?
CC1CCN(S(=O)(=O)c2cn(CC(=O)Nc3ccc(C#N)cc3)cn2)CC1 | -5.0% | 10.4% | 0.0 | 3.7% | 0.8 | -6.0% | -5.5%
CCCc1cc(=O)[nH]c(SCC(=O)Nc2nonc2C)n1 | -23.5% | -0.7% | -1.7 | 7.7% | -0.1 | 4.2% | -7.3%
CCOC(=O)c1cc(-c2ccccc2)sc1NC(=O)C(C)Sc1nnnn1C (stereo unspecified) | 13.1% | 5.2% | -1.4 | 4.6% | -0.2 | -17.0% | 1.3%
CCOC(=O)c1c(NC(=O)CSc2ncnc3[nH]ncc23)sc2c1CCC(C)C2 (stereo unspecified) | -1.1% | -19.1% | -0.5 | -11.4% | -1.8 | -14.9% | 8.5%
Cc1ccc(NC(=O)CSc2sc3c(O)cc(=O)[nH]c3c2C#N)c(F)c1 | -21.1% | -17.2% | -0.5 | -5.6% | -2.6 | -11.2%[11.6 µM] | ?
Cc1cccc(C)c1NC(=O)C1CCCN1S(=O)(=O)c1ccccc1 (stereo unspecified) | 13.3% | 1.7% | -0.9 | 4.3% | -0.5 | 3.3% | 0.6%
NC(=O)c1ccc(S(=O)(=O)N2CCSCC2)cc1 | -9.2% | -7.8% | 1.8 | 3.7% | -2.7 | 5.4% | 4.1%
CC(/C=C/c1cccc([N+](=O)[O-])c1)=N\NC(=O)c1ccncc1 | 1.2% | -0.2% | -1.4 | 8.2% | -0.4 | -20.7% | -14.0%
COCCn1c(=O)[nH]c2cc(C(=O)N3CCN(c4cc(C)ccc4C)CC3)ccc2c1=O | -19.2% | -4.1% | -4.1 | -9.4% | -0.9 | -4.8% | -1.4%
c1coc(-c2ccnc3nc(-n4cccc4)nn23)c1 | -7.1% | -5.0% | -4.1 | -2.5% | 0.2 | -12.5% | -23.9%
Cc1c(NC(=O)Cc2cccs2)cccc1[N+](=O)[O-] | -4.4% | 4.9% | -3.7 | -4.5% | 0.2 | -15.5% | -14.9%
CCCCNc1nc(-c2ccccc2)c(C(=O)OCC)cc1C#N | -16.0% | -9.4% | 0.0 | 5.1% | -1.4 | -23.1%[57.1 µM] | -8.5%
O=C(c1ccc(CS(=O)(=O)c2ccccc2)o1)N1CCN(c2ccccc2)CC1 | -9.5% | 6.8% | -0.3 | 0.5% | -3.5 | -32.8% | ?
Cc1ccc(-n2nc(-c3ccco3)cc2C(=O)O)c(C)c1 | -18.3% | 0.6% | -5.3 | 12.0% | 2.0 | ? | -27.0%
COc1ccc(C(=O)/C=C2/C(=O)Nc3ccccc32)cc1 | 3.0% | 8.2% | -1.8 | 14.0% | -3.3 | -7.8% | -13.3%
O=C(CSc1nccc(=O)[nH]1)Nc1cccc2ccccc12 | ? | -1.9% | -2.8 | 1.5% | -0.9 | -27.0% | -4.4%

Next part
SMILES | EPAC1 antag | EPAC1 agonist | CCT modulator | EPAC2 agonist | IL2 activator | WRN inhibitor | PLK1 PBD inh
O=C(COc1ccc([N+](=O)[O-])cc1)NNC(=O)c1cccnc1 | -28.8% | -3.4% | -1.9 | 5.2% | -0.3 | 6.1%[57.1 µM] | -4.9%
COCCn1c(=NC(=O)CSCC(=O)Nc2cc(C)on2)sc2cc(C(=O)OC)ccc21 | 2.1% | 0.1% | -1.7 | -0.9% | -0.9 | -5.5% | 26.7µM*
CC(=O)c1cccc(NC(=O)CCc2nc3sc4c(c3c(=O)[nH]2)CCCC4)c1 | -20.1% | 2.4% | 0.3 | 2.7% | 1.0 | -1.4%[11.6 µM] | -3.1%
COc1ccc(C(=O)/C=C2/C(=O)Nc3ccccc32)cc1OC | -28.9% | -4.5% | -0.2 | 0.4% | 0.3 | -9.7% | -23.4%
Cc1cc2c(cc1C)-n1nnnc1C(N1CCN(c3ncccc3C#N)CC1)C(=O)N2 (stereo unspecified) | 11.2% | -0.1% | . | 7.0% | 0.7 | 1.6% | -13.0%
O=C1Nc2ccccc2-n2nnnc2C1N1CCN(c2cccc(C(F)(F)F)n2)CC1 (stereo unspecified) | -11.1% | -7.5% | . | -0.8% | -0.6 | -3.3% | -6.8%
COc1ccc(CC2(CO)CCN(Cc3cccn3-c3ccccn3)CC2)cc1 | ? | -13.7% | -1.6 | 3.3% | -3.2 | 7.7% | -14.0%
CCN(c1ccc(NC(=O)CSCc2c(C)noc2C)cc1)C(C)C | 1.1% | 11.0% | 1.4 | 5.5% | 3.2 | -0.8% | -2.0%
Cc1sc2ncnc(SCC(=O)Nc3ncccc3O)c2c1C | -28.6% | 5.6% | 1.4 | 0.6% | 0.2 | ? | ?
Cc1sc2ncnc(SCC(=O)Nc3ccc(CN4CCCC4)cc3)c2c1C | 3.7% | -3.9% | -0.3 | 4.3% | 0.1 | 4.9% | 1.5%
FC(F)(F)c1cc(-c2cccs2)nc2cc(-c3ccccc3)nn12 | -7.0% | -6.1% | -0.7 | -2.6% | -3.8 | 5.6% | 3.1%
Cc1ccc(CC(=O)Nc2ncc([N+](=O)[O-])s2)cc1 | -5.7% | -0.1% | 0.8 | -10.4% | -3.8 | 2.5% | -7.4%
CCOC(=O)c1sc2c(c1C)c(=O)n(CCO)c(=O)n2Cc1ccccc1 | -8.0% | -2.5% | 0.4 | -5.6% | -0.3 | 0.4% | -2.0%
C=CCn1c(CCNC(=O)c2ccccc2F)nnc1SCC(=O)Nc1ccc(OC)cc1 | -0.8% | 9.7% | -3.2 | 16.9% | 0.1 | 8.4% | -6.3%
Cc1ccc(S(=O)(=O)CC(=O)Nc2ncc([N+](=O)[O-])s2)cc1 | 3.7% | -8.8% | -1.1 | 8.2% | -3.3 | -10.0% | -9.7%
COc1ccc(Cl)cc1NC(=O)CSc1sc2c(O)cc(=O)[nH]c2c1C#N | -14.2% | -1.3% | -2.4 | -2.7% | 0.1 | ? | ?
COc1ccc(NC(=O)CNCc2cccs2)c(OC)c1 | 2.9% | 11.7% | 0.2 | 0.5% | 0.9 | -4.0% | -3.0%

Screening data deposited in PubChem BioAssay by National Center for Advancing Translational Sciences (NCATS).
